# Sfp PPTase inh: inhibitors of Bacillus subtilis Sfp phosphopantetheinyl transferase | 310,000 tested, 3.5% active | Potency, µM, without a hit: max response, negative = inhibition, actives largely listed as inhibitors | Q9F4F7 | Biochemical Sfp PPTase activity, qHTS; active = well fitted inhibition curve with a large enough effect; inconclusive = small, poorly fitted or top-dose-only effect, or another doubt; inactive = no such curve, though single readings can be large or run the other way;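 also: the enzyme is Sfp with the accession as filed and its product quenches rhodamine fluorescence; 0% = enzyme reaction without inhibitor and -100% = no enzyme wells; top concentration of the series not given in the record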
#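 With Hepes-Na pH 7.6 buffer containing 10 mM MgCl2, Sfp (15 nM) modified BHQ-2-YbbR (12.5 uM) using rhodamine-CoA (5 uM). Two reads 30 minutes apart at 525/598 nm yielded each well's rate.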
# PINK1 expr mod: modulators of PINK1 expression | PINK1 immunofluorescence, high-content cytometry, 24 h | 410,000 tested, 0.2% active | AID 624263 | Potency, µM (doses to about 76.6 µM), for the others: at the top dose activation (PINK1 increase), usual class: activators; active = well fitted activation curve with a large enough effect; inconclusive = small, poorly fitted or top-dose-only effect; inactive = flat fitted curve, though single readings scatter; cell line not stated here;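 also: % of control where 0% means no effect; nearly all actives have a fitted effect of over 65% in size; a mitochondrial uncoupler was the plate control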
#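 Measures PINK1 amount and localization on or inside mitochondria by immunofluorescence. Stable cells get compounds at 5 concentrations for 24 hours before fixation and staining; CCCP controls included.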
# An asterisk follows results filed as active; ? = inconclusive; & = joins results of further samples; [ ] = another dose, or the depositor's remark. Potency is read from the fitted curve at half-maximal effect.
structure	Sfp PPTase inh	PINK1 expr mod
C[C@@H]1OC(OC2CC[C@@]3(C)C(CC[C@@]4(C)C3CC=C3C5CC(C)(C)CC[C@]5(C(=O)OC5OCC(O)[C@@H](O)[C@@H]5OC5O[C@@H](C)[C@H](O[C@H]6OC(CO)C(O)C(O)C6O)C(O)C5O)C(O)C[C@@]34C)C2(C)C)C(O)C(O)[C@H]1OC1OCC(O)C(O)[C@H]1O (stereo partly specified)	20.2%	-1.8%
CC(=O)NCCNc1nc(-c2ccccc2C)nc2ccccc12	19.3%	0.2%
c1cn(-c2cc(-c3ccc4c(c3)OCO4)ncn2)cn1	-1.3%	-0.4%
CS(=O)(=O)N1CCC2(CCN(Cc3ccc(C#N)cc3)CC2)CC1	30.6%[activator]	-0.2%
O=c1cnc2cnc(Oc3ccccc3)nc2n1C1CC1	-2.8%	-0.5%
CN1CCN(c2ncncc2-c2ccccc2C(F)(F)F)CC1	6.7%	0.4%
COc1ccc(NC(=O)N2CC3(CCN(C(=O)c4ccncc4)CC3)C2)cc1	22.9%	-1.0%
N#CCCn1c(=O)c(-c2ccc(Cl)cc2)nc2cnc(Oc3ccccc3)nc21	23.1%	8.6%
c1ccc(C(c2ccccc2)N2CCCC3(CCNCC3)C2)cc1	-16.5%	-1.4%
O=C(c1csnn1)N1CCC2(CC1)CCN(c1ccccn1)CC2	3.8%	0.0%
COC(=O)N1CCC2(CCN(Cc3ccccc3OC)CC2)CC1	14.4%	-0.9%
CC(=O)N1CCC2(CCN(Cc3ccc(C#N)cc3)CC2)CC1	8.7%	0.3%

# Next structures.
structure	Sfp PPTase inh	PINK1 expr mod
CN(C)C(=O)c1ccc(-c2cncnc2NC2CCNCC2)cc1	9.1%	2.0%
COc1ccccc1CCn1c(=O)c(CCc2ccccc2)nc2cncnc21	27.2%	0.7%
Cn1cccc1C(=O)N1CCC2(CCCN(C(=O)Nc3cccc(C#N)c3)C2)CC1	24.9%	-0.2%
COCC(=O)N1CCC[C@@]2(CCN(Cc3cc(C(F)(F)F)cc(C(F)(F)F)c3)C2)C1	-4.5%	0.3%
CN1CCN(c2nc(-c3ccc4c(c3)OCO4)nc3ccccc23)CC1	11.7%	-1.3%
Cc1ccccc1-c1cc(N2CCNCC2)ncn1	34.4%[activator]	-0.3%
COC(=O)N1CCC2(CC1)CN(C(=O)Nc1cccc(F)c1)C2	15.4%	0.0%
COc1ccc(-n2c(=O)c(-c3ccc(F)c(F)c3)nc3cncnc32)cc1	3.1%	6.5%
N#Cc1ccc(CN2CCC3(CC2)CCN(S(=O)(=O)c2ccccc2)CC3)cc1	8.5%	1.5%
CCNc1ncc2nc(-c3cccc(C#N)c3)c(=O)n(C)c2n1	-20.2%	4.3%
CN1CCN(c2ncc3nc(-c4cccs4)c(=O)n(Cc4cccs4)c3n2)CC1	?	?
OCC1OC(n2cnc3c(=S)nc[nH]c32)C(O)C1O (stereo unspecified)	3.55µM*	5.2%&4.4%&2.1%

# Additional structures follow.
structure	Sfp PPTase inh	PINK1 expr mod
O=C(c1cccc(F)c1)N1CCC2(CC1)CCN(c1ccncc1)CC2	25.2%	0.7%
COCC(=O)N1CCC[C@@]2(CCN(c3ccccn3)C2)C1	-1.4%	-0.7%
COc1ccc(-n2c(=O)c(-c3ccccc3)nc3cncnc32)cc1	-1.6%	-0.4%
O=c1[nH]cnc2c1ncn2C1CC(O)C(CO)O1 (stereo unspecified)	25.8%	1.9%
CO[C@H]1C[C@@H]2CC[C@@H](C)[C@@](O)(O2)C(=O)C(=O)N2CCCC[C@H]2C(=O)O[C@H]([C@H](C)C[C@@H]2CC[C@@H](O)[C@H](OC)C2)CC(=O)[C@H](C)/C=C(\C)[C@@H](O)[C@@H](OC)C(=O)[C@H](C)C[C@H](C)/C=C/C=C/C=C/1C	-1.8%	2.7%
CC(C)NC(=O)N1CC2(CCN(S(=O)(=O)c3ccccc3)CC2)C1	3.6%	-0.6%
CN(C)Cc1ccccc1-c1ccc2ncnc(N(C)C)c2c1	36.0%[activator]	-0.2%
O=C(Nc1ccccc1)N1CC2(CCN(S(=O)(=O)c3ccccc3)CC2)C1	14.9%	-0.3%
COc1ccc(CNc2ncnc3ccc(-c4cccc(NS(C)(=O)=O)c4)cc23)c(OC)c1	3.3%	5.5%
COc1ccc2[nH]cc(CCNc3ncnc4ccc(-c5c(C)noc5C)cc34)c2c1	13.0%	-0.4%
Cc1noc(C)c1C(=O)N1CCC2(CCN(Cc3ccccc3)CC2)CC1	16.6%	0.6%
O=C(c1cccc(F)c1)N1CCC2(CC1)CN(c1ncccn1)C2	-7.6%	-0.7%

# New compounds follow:
structure	Sfp PPTase inh	PINK1 expr mod
Cc1nc2cnc(N(C)C)nc2n(C[C@H]2CCCO2)c1=O	18.9%	0.0%
COc1ccc(Oc2ncc3ncc(=O)n(Cc4cccs4)c3n2)cc1	21.1%	5.8%
CCNc1ncc2nc(-c3ccc(OC)cc3)c(=O)n(CCc3ccccc3)c2n1	29.3%	4.0%
COc1ccc(-c2nc3cnc(OC)nc3n(Cc3ccc(F)cc3)c2=O)cc1	23.6%	1.3%
COc1ccccc1-c1cc(Nc2ccc(F)cc2)ncn1	-3.2%	0.2%
O=c1c(-c2ccc(Cl)cc2)nc2cnc(Nc3ccccc3)nc2n1C[C@H]1CCCO1	18.2%	14.1%
c1ccc(CNc2nc(-c3ccc4c(c3)OCO4)nc3ccccc23)cc1	4.1%	23.4%
CC1(O)CC2C(CC1O)C2(C)C (stereo unspecified)	-0.4%	1.0%
COCCn1c(=O)c(CCc2ccccc2)nc2cnc(Nc3ccccc3)nc21	21.5%	5.9%
CC(=O)C1(O)Cc2c(O)c3c(c(O)c2C(OC2CC(N)C(O)C(C)O2)C1)C(=O)c1c(O)cccc1C3=O (stereo unspecified)	-21.8%	-0.5%
COc1ccccc1-c1ccc2ncnc(N(C)Cc3ccco3)c2c1	?	1.6%
FC(F)(F)c1ccccc1-c1ccc2ncnc(NC3CC3)c2c1	14.6%	0.2%

# Continued.
structure	Sfp PPTase inh	PINK1 expr mod
CC(=O)NCCNc1cc(-c2ccccc2C(F)(F)F)ncn1	12.4%	-0.5%
C=C1CCC2C(C)(CO)C(O)CCC2(C)C1C/C=C1\C(=O)OCC1O (stereo unspecified)	-1.5%	2.4%
CC(C)CCCC(C)C1CCC2C3=CC[C@@H]4CC(O)CC[C@@]4(C)C3CC[C@]21C (stereo partly specified)	-13.1%	4.4%
CC(=O)N1CCC2(CC1)CCN(C(=O)Nc1cccc(F)c1)CC2	-12.8%	-0.4%
CS(=O)(=O)N1CCC2(CC1)CN(C(=O)Nc1cccc(F)c1)C2	35.9%[activator]	-0.3%
COc1ccc(CNc2ccnc(-c3cccc(NS(C)(=O)=O)c3)n2)c(OC)c1	-19.6%	-0.9%
CN(C)c1ncc2nc(-c3cccs3)c(=O)n(CCc3ccccc3)c2n1	2.9%	3.3%
CCNc1ncc2nc(-c3ccc(F)cc3)c(=O)n(C)c2n1	-1.0%	2.4%
Cn1cccc1C(=O)N1CCC2(CC1)CN(C(c1ccccc1)c1ccccc1)C2	3.9%	-0.2%
CNc1ncnc2ccc(-c3ccccc3C#N)cc12	1.7%	-0.8%
C=C1CCC(=O)C(C)CCC2C1CC2(C)C (stereo unspecified)	-9.9%	-0.2%
COc1ccc(Oc2ncc3nc(-c4cccc(C#N)c4)c(=O)n(Cc4cccc(OC)c4)c3n2)cc1	1.0%	1.5%

# (listing goes on)
structure	Sfp PPTase inh	PINK1 expr mod
COc1ccc(C(=O)N2CCC3(CCN(Cc4cc(C(F)(F)F)cc(C(F)(F)F)c4)CC3)CC2)cc1	31.3%	-0.4%
O=c1c(CCc2ccccc2)nc2cnc(Nc3ccccc3)nc2n1C[C@H]1CCCO1	20.1%	11.4%
CN(C)C(=O)c1ccc(-c2nccc(NCc3cccnc3)n2)cc1	12.5%	0.1%
COCCn1c(=O)c(-c2ccc(OC)cc2)nc2cnc(Oc3ccccc3)nc21	6.6%	-0.3%
Cc1cnc(CNc2ncncc2-c2ccccc2Cl)cn1	79.4µM*	0.4%
COc1cccc(-c2cc(NCc3cccnc3)ncn2)c1	-8.1%	-0.9%
N[C@H](C(=O)O)C(O)C(O)C(O)CO (stereo partly specified)	5.2%	0.5%
CCNc1ncc2nc(-c3ccc(OC)cc3)c(=O)n(C[C@H]3CCCO3)c2n1	12.6%	1.9%
O=C(Nc1ccccc1)N1CC[C@@]2(CCCN(C(=O)c3ccco3)C2)C1	1.6%	0.5%
CN(C)c1ncc2nc(CCc3ccccc3)c(=O)n(Cc3cccs3)c2n1	?	2.1%
CC(=O)N1CCC2(CC1)CCN(C(=O)Nc1cccc(C#N)c1)CC2	12.8%	0.6%
COCCn1c(=O)c(-c2cccc(C#N)c2)nc2cnc(Nc3ccccc3)nc21	-6.2%	25.1µM*

# New compounds follow:
structure	Sfp PPTase inh	PINK1 expr mod
COc1ccc(-c2nc3cnc(Oc4ccccc4)nc3n(CCC#N)c2=O)cc1	12.7%	4.9%
CC1=CC(=O)C2C(C)(C)CCC[C@@]2(C)[C@@]1(O)CCc1ccoc1 (stereo partly specified)	-7.5%	1.7%
Cc1nc2cnc(N3CCOCC3)nc2n(CCc2ccccc2)c1=O	20.1%	0.0%
COCC(=O)N1CCC2(CC1)CN(Cc1nccs1)C2	4.2%	0.2%
Cc1cnc(CNc2ncncc2-c2ccoc2)cn1	-17.1%	1.4%
CN(C)C(=O)c1ccc(-c2cncnc2NCCN2CCOCC2)cc1	?	2.7%
COC(=O)N1CCC2(CCCN(C(=O)Nc3ccccc3)C2)CC1	6.3%	-0.8%
Cn1cccc1C(=O)N1CCC[C@@]2(CCN(Cc3cc(C(F)(F)F)cc(C(F)(F)F)c3)C2)C1	45.8%[activator]	1.5%
CC1OC(n2cc(F)c(=O)[nH]c2=O)C(O)C1O (stereo unspecified)	17.1%	0.1%
COc1cccc(Nc2ncc3nc(-c4cn(C)c5ccccc45)c(=O)n(C[C@H]4CCCO4)c3n2)c1	17.4%	2.51µM*
COc1ccc(C(=O)N2CCC3(CCCN(c4ccc(-c5ccccc5)cc4)C3)CC2)cc1	-2.1%	1.1%
COCCn1c(=O)c(C)nc2cnc(Nc3ccccc3)nc21	10.0%	3.1%

# Other compounds follow.
structure	Sfp PPTase inh	PINK1 expr mod
CCOC(=O)C1(O)Oc2cc(OC)cc(OC)c2C(=O)C1c1ccccc1 (stereo unspecified)	27.6%	1.5%
Cn1cc(-c2nc3cncnc3n(Cc3ccccc3Cl)c2=O)c2ccccc21	10.2%	7.1%
CN1CCN(c2ncc3nc(-c4cc(F)cc(F)c4)c(=O)n(C4CC4)c3n2)CC1	-10.7%	-0.1%
COc1cccc(-c2nccc(NCc3ccccc3OC)n2)c1	-19.5%	0.1%
CN(C)Cc1ccccc1-c1cncnc1NCc1ccccc1	-16.8%	-0.5%
COc1ccccc1CNc1ncnc2ccc(-c3c(C)noc3C)cc12	-9.7%	3.0%
O=C(c1ccco1)N1CCC2(CC1)CN(Cc1cc(C(F)(F)F)cc(C(F)(F)F)c1)C2	22.6%	0.8%
COC1=CC(=O)C(O)=C/C1=C\C=C\c1ccccc1	11.2µM*	6.7%
COc1cccc(Nc2ncc3nc(-c4cccs4)c(=O)n(C[C@H]4CCCO4)c3n2)c1	-3.0%	4.2%
Cn1cc(-c2nc3cnc(N4CCNCC4)nc3n(C)c2=O)c2ccccc21	-7.6%	4.3%
COc1cccc(Cn2c(=O)c(-c3cccs3)nc3cnc(N4CCN(C)CC4)nc32)c1	-7.7%	6.6%
CC(C)=CCC/C(C)=C/CC/C(C)=C/CO	22.7%&0.6%&12.0%	0.7%

# (listing goes on)
structure	Sfp PPTase inh	PINK1 expr mod
Cc1nc2cnc(OCc3ccccc3)nc2n(Cc2ccc(F)cc2)c1=O	-21.9%	0.7%
N#CCCn1c(=O)c(-c2ccc(F)cc2)nc2cnc(Oc3cccc(Cl)c3)nc21	-1.9%	6.8%
NC(Cc1cnc[nH]1)C(=O)Nc1ccc2ccccc2c1 (stereo unspecified)	11.3%	0.5%
CCNc1ncc2nc(-c3cccs3)c(=O)n(-c3ccc(OC)cc3)c2n1	13.8%	8.9%
CCNc1ncc2nc(-c3ccccc3)c(=O)n(-c3ccc(OC)cc3)c2n1	6.2%	0.8%
COc1ccccc1-c1cc(NCc2cnc(C)cn2)ncn1	50.1µM*	0.2%
Cn1c(=O)c(-c2ccc(Cl)cc2)nc2cnc(Nc3ccccc3)nc21	5.3%	-1.1%
Cc1nc2cnc(Nc3ccccc3)nc2n(C[C@H]2CCCO2)c1=O	14.2%	-0.3%

# Entries of single compounds as entered above. Values in the order: Sfp PPTase inh, PINK1 expr mod
# Record of CCNc1ncc2nc(-c3ccccc3)c(=O)n(-c3ccc(OC)cc3)c2n1 = 6.2%, 0.8%
# Record of N#CCCn1c(=O)c(-c2ccc(F)cc2)nc2cnc(Oc3cccc(Cl)c3)nc21 = -1.9%, 6.8%
# Record of Cc1nc2cnc(OCc3ccccc3)nc2n(Cc2ccc(F)cc2)c1=O = -21.9%, 0.7%
# Record of CCNc1ncc2nc(-c3cccs3)c(=O)n(-c3ccc(OC)cc3)c2n1 = 13.8%, 8.9%
# Record of NC(Cc1cnc[nH]1)C(=O)Nc1ccc2ccccc2c1 (stereo unspecified) = 11.3%, 0.5%

# Screening data from PubChem BioAssay.

# An excerpt; the hit share may differ from the screen's.
